PK Bst: alters activity of Bacillus stearothermophilus pyruvate kinase; partly purified Bacillus stearothermophilus pyruvate kinase, luminescence ATP production; ribose 5-phosphate activator present at AC10; Potency, µM; 51,000 tested, 1.2% active; AID 361; in the data active means potency below about 11 µM; inconclusive means mostly about 12 µM to 25 µM; inactive means weaker than that;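 the screen sought inhibitors and activators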;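 note: potency is the fitted concentration of half-maximal effect; scaled between full activation by ribose 5 phosphate and full inhibition by luteolin; about four in five hits inhibit and the cells do not say which; series up to 57 µM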
TsaE inh: displaces an ADP probe from E. coli YjeE (TsaE). P0AF67. purified YjeE, fluorescence polarisation of a bound ADP probe. Potency, µM. 71,000 tested, 0.05% active. AID 605; active = well fitted falling curve; inconclusive = weaker or top-dose-only fall, or a rising curve; inactive = flat or poorly fitted curve;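 note: top concentration of the series not given in the record; excess ADP was the control for the full effect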
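Fluorescence polarization of a BODIPY Texas Red–ADP probe (2 uM) bound to purified YjeE (10 uM) was read after 15 min room-temperature incubation with compounds. Loss of polarization marks inhibitors; ADP serves as titrated control.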
Active calls of the source: *.

What do the screens show for `Cc1ccc(Cn2nc(C)c(NC(=O)c3noc4c3CCCCC4)c2C)cc1`?
PK Bst: >57; TsaE inh: inactive

Results for O=C(CCNc1n[nH]c(=O)[nH]c1=O)N1CCCCC1 ?
PK Bst: >57; TsaE inh: inactive

What do the screens show for `O=C(Nc1ccc2c(c1)CCC2)C1CCCN(c2ncccn2)C1` (centres undefined)?
PK Bst: >57; TsaE inh: inactive

How did CC(NC(=O)c1cc(-c2cccs2)on1)c1ccccc1 (centres undefined) do in these assays?
PK Bst: >57; TsaE inh: inactive

What do the screens show for `CCOC(=O)C1CCN(C(=O)COc2cc(C)c(Br)cc2C)CC1`?
PK Bst: >57; TsaE inh: inactive

How did COc1cc2c(cc1OC)C(C(=O)N1CCCCC1)C(c1ccccc1F)N(C)C2=O (centres undefined) do in these assays?
PK Bst: >57; TsaE inh: inactive

What do the screens show for `CCN(CC)c1ccc(CN(C(=O)c2ccco2)C2CCS(=O)(=O)C2)cc1` (centres undefined)?
PK Bst: >57; TsaE inh: inactive

What do the screens show for `c1cncc(CNc2ccnc(-c3ccc4c(c3)OCO4)n2)c1`?
TsaE inh: inactive

How did CCC(C)NC(=O)c1ccccc1NC(=O)C(C)N(c1ccccc1)S(C)(=O)=O (centres undefined) do in these assays?
PK Bst: >57; TsaE inh: inactive

Results for COc1c(O[C@H]2O[C@@H](CO)[C@@H](O)[C@@H](O)[C@@H]2O)cc2c(c1OC)-c1ccc(SC)c(=O)cc1[C@H](NC(C)=O)CC2 ?
TsaE inh: inactive

Results for CCCc1nc2ccccc2c(=O)n1NC(=O)c1c(O)c2cccc3c2n(c1=O)CCC3 ?
PK Bst: >57; TsaE inh: inactive

What do the screens show for `O=C(CCn1nnc(-c2cccs2)n1)N1CCc2ccccc2C1`?
PK Bst: inconclusive; TsaE inh: inactive

Results for COc1ccc(C(c2sc3nc(C)nn3c2O)N2CCc3ccccc3C2)cc1 (centres undefined) ?
TsaE inh: inactive

How did C=CCn1c(SCc2c(C)noc2C)nc2cc(C(=O)O)ccc2c1=O do in these assays?
PK Bst: >57; TsaE inh: inactive

How did O=C(Cc1cccs1)Nc1ccccc1C(=O)O do in these assays?
PK Bst: >57; TsaE inh: inactive

Brought forward from above: six compounds, followed by the next part.
Results for COc1c(O[C@H]2O[C@@H](CO)[C@@H](O)[C@@H](O)[C@@H]2O)cc2c(c1OC)-c1ccc(SC)c(=O)cc1[C@H](NC(C)=O)CC2 ?
TsaE inh: inactive

Results for CCCc1nc2ccccc2c(=O)n1NC(=O)c1c(O)c2cccc3c2n(c1=O)CCC3 ?
PK Bst: >57; TsaE inh: inactive

What do the screens show for `O=C(CCn1nnc(-c2cccs2)n1)N1CCc2ccccc2C1`?
PK Bst: inconclusive; TsaE inh: inactive

Results for COc1ccc(C(c2sc3nc(C)nn3c2O)N2CCc3ccccc3C2)cc1 (centres undefined) ?
TsaE inh: inactive

How did C=CCn1c(SCc2c(C)noc2C)nc2cc(C(=O)O)ccc2c1=O do in these assays?
PK Bst: >57; TsaE inh: inactive

How did O=C(Cc1cccs1)Nc1ccccc1C(=O)O do in these assays?
PK Bst: >57; TsaE inh: inactive

Results for COC(=O)C1=C(C)NC(C)=C(C(=O)OC(C)C)[C@H]1c1cccc2nonc12 ?
TsaE inh: inactive

What do the screens show for `N#Cc1cccc(-c2nc3cnc(N4CCOCC4)nc3n(Cc3ccc(F)cc3)c2=O)c1`?
TsaE inh: inactive

What do the screens show for `Cc1cccc(-c2nc(CS(=O)CC(=O)N3CCN(C)CC3)c(C)o2)c1` (centres undefined)?
TsaE inh: inactive

How did O=C(CSc1nnc(-c2cnccn2)n1Cc1ccco1)c1ccccc1 do in these assays?
PK Bst: >57; TsaE inh: inactive

What do the screens show for `CCOC(=O)C(OC(=O)c1sc(=S)n(C)c1C)C(C)=O` (centres undefined)?
PK Bst: >26

What do the screens show for `CCN1CCn2c1nc(N1CCOCC1)nc2=O`?
PK Bst: >57; TsaE inh: inactive

How did C/C(=N/S(=O)(=O)c1ccc(Cl)c(Cl)c1)OCC(C)(C)C do in these assays?
TsaE inh: inactive

Results for COc1ccc(OC)c(NC(=O)CSCc2cnn(-c3ccccc3)c2-n2cccc2)c1 ?
PK Bst: >57; TsaE inh: inactive

How did COc1cccc(S(=O)(=O)NCc2ccc(C(=O)NCC3CCCO3)cc2)c1 (centres undefined) do in these assays?
PK Bst: >57; TsaE inh: inactive

Results for Cc1ccc(S(=O)(=O)n2nc(C)c(Br)c2C)c(C)c1C ?
TsaE inh: inactive

How did COC(=O)c1cccc(N2C(=O)c3cccnc3C2=O)c1 do in these assays?
PK Bst: inactive; TsaE inh: inactive

What do the screens show for `CCc1ccccc1Nc1ccc(C(=O)O)cc1N`?
PK Bst: >57; TsaE inh: inactive

How did COc1cccc(/C(O)=C2/C(=O)C(=O)N(CCCN(C)C)C2c2cccc(Cl)c2)c1 (centres undefined) do in these assays?
PK Bst: >26

Results for O=C(O)CNC(=O)c1ccc2c(c1)OCCO2 ?
PK Bst: >57; TsaE inh: inactive

Results for CC1(C)CC(=O)C(CC2=C(O)CC(C)(C)CC2=O)C(=O)C1 ?
PK Bst: >57; TsaE inh: inactive

How did O=S(=O)(c1ccc(N2CCCC2c2nc3ccccc3s2)nc1)N1CCOCC1 (centres undefined) do in these assays?
PK Bst: >57; TsaE inh: inactive

How did Nc1ccc(N=Nc2ccc(-c3ccc(O)cc3)cc2)c2ccc(S(=O)(=O)O)cc12 do in these assays?
TsaE inh: inactive

Results for CCOC(=O)C1=C(C)NC(=O)C(C#N)C1c1ccco1 (centres undefined) ?
PK Bst: >57; TsaE inh: inactive

Results for CCOc1ccc(NC(=O)C2CC(=O)N3CCCN=C3S2)cc1 (centres undefined) ?
PK Bst: >57; TsaE inh: inactive

How did CCC(=O)Nc1c(OC(=O)CC)ccc2c(C)cc(=O)oc12 do in these assays?
TsaE inh: inactive

What do the screens show for `Cn1c(=O)c2c(nc(NCc3ccccc3)n2C)n(C)c1=O`?
TsaE inh: inactive

How did CN1CCN(CCP(=O)(c2ccccc2)c2ccccc2)CC1 do in these assays?
TsaE inh: inactive

How did COc1cccc(N=C2SC(C(=O)Nc3ccc(F)cc3)CC(=O)N2C)c1 (centres undefined) do in these assays?
PK Bst: >57; TsaE inh: inactive

Results for COCCOC(=O)c1c(C)oc2ccc(OC(=O)c3cccs3)cc12 ?
TsaE inh: inactive

Results for COC(=O)Nc1ccc(S(=O)(=O)N(CCO)CC(F)(F)C(F)F)cc1 ?
PK Bst: >57; TsaE inh: inactive

Results for Cc1cc(O)c(NC(=O)c2ccc(Br)o2)cc1C ?
TsaE inh: inactive

Results for C=CCN1C(=O)CS/C1=N/c1nccs1 ?
PK Bst: >57; TsaE inh: inactive

Results for CSc1ccc(/C=N/n2c(C)cc(C)cc2=O)cc1 ?
TsaE inh: inactive

Results for CN=C(N)NCCC[C@H](N)C(=O)O ?
TsaE inh: inactive

Results for CC(=O)N1CCC2(CC1)CN(C(c1ccccc1)c1ccccc1)C2 ?
TsaE inh: inactive

How did Cc1cccc(CC(=O)Nc2c3c(nn2-c2cccc(Cl)c2)CS(=O)C3)c1 (centres undefined) do in these assays?
PK Bst: >57; TsaE inh: inactive

How did Cc1noc(C)c1COC(=O)c1ccc2ccccc2n1 do in these assays?
PK Bst: >57; TsaE inh: inactive

What do the screens show for `COc1cc(C2C(C(=O)N3CCOCC3)=C(C)NC3=C2C(=O)CCC3)ccc1OC(C)=O` (centres undefined)?
PK Bst: >57; TsaE inh: inactive

Results for Cn1c(=NC(=O)CN2C(=O)C3CC=CCC3C2=O)sc2ccccc21 (centres undefined) ?
TsaE inh: inactive

How did CC(=O)Nc1ccc(-c2nn3c(C)nnc3s2)cc1C do in these assays?
PK Bst: >57; TsaE inh: inactive

How did CN1C[C@H](c2ccccc2)C(O)([C@]2(c3ccccc3)CN(C)C[C@@H](c3ccccc3)C2=O)[C@H](c2ccccc2)C1 (some centres undefined) do in these assays?
TsaE inh: inactive

How did COC(=O)C(C)Sc1nnc(Cc2cc(=O)[nH]c(=O)[nH]2)n1-c1cc(C)ccc1C (centres undefined) do in these assays?
TsaE inh: inactive

What do the screens show for `COc1ccc(C(=O)Nc2nc3ccccc3[nH]2)cc1OC`?
PK Bst: inactive; TsaE inh: inactive

What do the screens show for `Cc1nc(C)c(C(=O)OCC(=O)N2CCN(c3ccccc3)CC2)s1`?
PK Bst: >57; TsaE inh: inactive

Results for Cc1cc(C)c2cc(CN(Cc3ccco3)C(=O)NCc3ccccc3)c(=O)[nH]c2c1 ?
PK Bst: >57; TsaE inh: inactive

Results for N[C@H](C(=O)O)[C@@H](O)c1cnc[nH]1 ?
TsaE inh: inactive

Results for COC(=O)[C@H](CC(C)C)NC(=O)Nc1ccc2c(c1)OCCO2 ?
PK Bst: >57; TsaE inh: inactive

Results for O=C(CCSc1nc(-c2ccco2)cc(C(F)(F)F)n1)N1CCCc2ccccc21 ?
PK Bst: >57; TsaE inh: inactive

What do the screens show for `Cc1cc(C)nc(N2CCN(c3nc(C)cc(C)n3)CC2)n1`?
PK Bst: >57; TsaE inh: inactive

Results for O=C(c1nn2c(C(F)(F)F)cc(-c3ccccc3)nc2c1Cl)N1CCOCC1 ?
PK Bst: >57; TsaE inh: inactive

Results for CCN1C(=O)c2cccc3c(S(=O)(=O)Nc4c(C)n(C)n(-c5ccccc5)c4=O)ccc1c23 ?
PK Bst: >57; TsaE inh: inactive

What do the screens show for `CCn1c(SCC(=O)N2CCc3ccccc32)nc2c(c1=O)SC(C)C2` (centres undefined)?
TsaE inh: inactive

How did Cc1ccc(-n2c(SCC(=O)NCc3ccco3)nc3nc4c(cc3c2=O)COC(C)(C)C4)cc1 do in these assays?
PK Bst: >26

How did CCOC(=O)/C=C1\NC(C)(C)Cc2cc(OC)c(O)cc21 do in these assays?
PK Bst: >57; TsaE inh: inactive

How did O=C(CN1C(=O)C2CC=C(Cl)CC2C1=O)N1CCOCC1 (centres undefined) do in these assays?
PK Bst: >57; TsaE inh: inactive

What do the screens show for `CCC(=O)Nc1ccc(Cl)c(NC(=O)c2ccc(Br)o2)c1`?
PK Bst: >57; TsaE inh: inactive

Results for Nc1ccc(C(=O)c2ccccc2C(=O)O)cc1Cl ?
PK Bst: >57; TsaE inh: inactive

Results for O=C(Nc1ccc2c(c1)oc1ccccc12)N1CCOCC1 ?
PK Bst: inconclusive; TsaE inh: inactive

Results for O=C(CN1CCN(Cc2ccccc2)CC1)NCC1COc2ccccc2O1 (centres undefined) ?
TsaE inh: inactive

Results for Cn1c(=O)[nH]c(=O)c2c1nc(OC(=O)c1ccccc1)n2CC(O)COc1ccccc1 (centres undefined) ?
PK Bst: >57; TsaE inh: inactive

How did COc1cccc(NC(=O)NC2(C(F)(F)F)Oc3ccccc3O2)c1 do in these assays?
PK Bst: >57; TsaE inh: inactive

Results for CCCCN(C)C(=O)C1CCN(Cc2ccccn2)CC1 ?
PK Bst: >57; TsaE inh: inactive

How did COc1cc(NC(=O)C2C3C=CC(C3)C2C(=O)O)c(OC)cc1Cl (centres undefined) do in these assays?
TsaE inh: inactive

Results for CCCc1ccc(Oc2cn[nH]c2-c2ccc(O)c(C)c2O)cc1 ?
PK Bst: >57; TsaE inh: inactive

What do the screens show for `Cc1oc(-c2ccc3c(c2)OCCO3)cc1C(=O)NC(CCC(=O)O)C(=O)O` (centres undefined)?
PK Bst: >57; TsaE inh: inactive

Results for O=C(COC(=O)c1ccc(S(=O)(=O)N2CCOCC2)cc1)NC1CCCC1 ?
PK Bst: >57; TsaE inh: inactive

How did CCn1cc(C(=O)NCC2CCCO2)c(=O)c2cc(S(=O)(=O)N3CCCCCC3)ccc21 (centres undefined) do in these assays?
PK Bst: >57; TsaE inh: inactive

What do the screens show for `C=CCN(C(=O)Nc1ccc(Cl)cc1)C1CC(=O)N(c2ccc(OC)cc2)C1=O` (centres undefined)?
PK Bst: >57; TsaE inh: inactive

Results for Cc1cccc2cc(CN(CCCO)C(=O)Nc3ccc(Cl)cc3)c(=O)[nH]c12 ?
PK Bst: >57; TsaE inh: inactive

What do the screens show for `COc1cc(C(=O)Nc2cccc(-c3nncn3C)c2)cc(OC)c1OC`?
TsaE inh: inactive

What do the screens show for `CSC1=C(C#N)C(C)C2=C(CC(C)(C)CC2=O)N1` (centres undefined)?
PK Bst: >57; TsaE inh: inactive

Results for COc1cc(NS(=O)(=O)c2ccc(NC(=O)c3ccc(C)o3)cc2)nc(OC)n1 ?
PK Bst: >57; TsaE inh: inactive

Results for CCCCC(=O)Nc1ccc(C(=O)N2CCCC(C(=O)OCC)C2)cc1 (centres undefined) ?
PK Bst: >57; TsaE inh: inactive

How did Cc1ccc2cc(CN(Cc3cccs3)Cc3nnnn3C(C)(C)C)c3nnnn3c2c1 do in these assays?
PK Bst: >57; TsaE inh: inactive

Results for O=C1c2ccccc2C(=O)N1CCCCN1CCN(CCCCN2C(=O)c3ccccc3C2=O)CC1 ?
PK Bst: >57; TsaE inh: inactive

Grouped by structure: the entries above containing two or more sulfur atoms
What do the screens show for `CCOC(=O)C(OC(=O)c1sc(=S)n(C)c1C)C(C)=O` (centres undefined)?
PK Bst: >26

How did O=S(=O)(c1ccc(N2CCCC2c2nc3ccccc3s2)nc1)N1CCOCC1 (centres undefined) do in these assays?
PK Bst: >57; TsaE inh: inactive

Results for C=CCN1C(=O)CS/C1=N/c1nccs1 ?
PK Bst: >57; TsaE inh: inactive

What do the screens show for `CCn1c(SCC(=O)N2CCc3ccccc32)nc2c(c1=O)SC(C)C2` (centres undefined)?
TsaE inh: inactive

This is a subset; rates above refer to the full screens.
